Screens from PubChem BioAssay.
VDR inhibitor: Inhibitors of the vitamin D receptor (VDR): qHTS; Vitamin D3 receptor (Homo sapiens), P11473; VDR-SRC2-3 peptide fluorescence polarization, 2 h; Potency, µM, without a hit: max response, negative = inhibition, most hits filed as inhibitors; 400,000 tested, 0.93% active; AID 504847, 2011; active means well fitted inhibition curve with a large enough effect; inconclusive means small, poorly fitted or top-dose-only effect, or another doubt; inactive means no such curve, though single readings can be large or run the other way; further: series mostly up to about 120 µM
Target sequence (P11473 whole entry, looked up): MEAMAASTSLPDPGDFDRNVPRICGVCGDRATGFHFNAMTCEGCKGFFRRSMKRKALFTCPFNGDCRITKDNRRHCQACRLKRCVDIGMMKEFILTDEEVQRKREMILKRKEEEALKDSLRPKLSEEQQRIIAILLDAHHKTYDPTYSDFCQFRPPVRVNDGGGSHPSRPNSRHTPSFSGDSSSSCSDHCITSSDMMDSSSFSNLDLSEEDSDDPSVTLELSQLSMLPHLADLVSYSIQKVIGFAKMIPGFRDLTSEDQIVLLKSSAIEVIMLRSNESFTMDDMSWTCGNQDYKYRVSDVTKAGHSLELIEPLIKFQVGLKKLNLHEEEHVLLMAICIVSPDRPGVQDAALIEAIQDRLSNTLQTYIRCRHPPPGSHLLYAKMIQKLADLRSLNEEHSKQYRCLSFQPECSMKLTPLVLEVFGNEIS
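The screen uses fluorescence polarization to detect compounds that interfere with recruitment of the SRC2-3 coactivator peptide to VDR; plates are read after 2 h at room temperature.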
* = called active by the depositor; ? = inconclusive; [ ] = dose if it differs, or a comment. On the % scale 0 is the no-effect control and ±100 the full control effect; potency means the concentration at half of the fitted maximal effect. These rows are one share of the data; rates above refer to the full screens.

SMILES	VDR inhibitor
Cc1cnc(CN(C)Cc2c(C(=O)N3CCc4ccccc4C3)nc3ccc(Cl)cn23)[nH]1	8.7%
COc1cccc(OC)c1C(=O)Nc1ccccc1N1CCCCC1	-10.3%
COC(=O)c1ccccc1OCC(=O)N1CCN(c2ccc(Cl)cc2)CC1	-15.3%
CCCOC(=O)c1ccc(NC(=O)COC)cc1	-2.4%
NS(=O)(=O)c1ccc(NC(=S)NCC2CCCO2)cc1 (centres undefined)	-18.8%
CC(=O)N1CCc2c(sc(NC(=O)CCS(=O)(=O)c3ccccc3)c2C#N)C1	-2.7%
O=C(COC(=O)c1cccc(Cl)c1)NC1CCCCCCC1	9.7%
CC1CCc2sc3nc(NCc4ccco4)n4ncnc4c3c2C1 (centres undefined)	4.8%
O=C(Nc1ccc(Cl)c(Cl)c1)Nc1nnc(CC2=CCCCC2)s1	6.1%
Cc1cc(C)c2nc(N(CCCN(C)C)C(=O)c3ccc4c(c3)CCCC4)sc2c1	-13.2%
O=c1o[nH]c(-c2ccccc2)c1C=Nc1ccc(Cl)cc1	11.3%
O=c1oc2c3c4c(cc2c2c1CCC2)OCCN4CCC3	-4.9%
COc1ccc(CN2CCN(C(=O)C3CC(=O)N(C4CCCCCC4)C3)CC2)c(OC)c1OC (centres undefined)	2.9%
CCOc1ccccc1N1CCN(C(=O)c2cccc(S(=O)(=O)N3CCOCC3)c2)CC1	-4.0%
N#Cc1ccc(CSc2nnc(Nc3ccccc3)s2)cc1	2.8%
CSc1ncc(CN2CCN(C(C)C)C(CCO)C2)cn1 (centres undefined)	7.9%
CC(=O)N1CCN(C(=O)c2cccc(S(=O)(=O)N3CCOCC3)c2)CC1	-10.8%
COc1ccccc1-c1cc(SC)c(C#N)c(=O)o1	-24.3%
CC(C)NC(=O)N1CCCC2(CCN(C(=O)c3cc(C(F)(F)F)cc(C(F)(F)F)c3)CC2)C1	-0.9%
CCCCC/C=C\C/C=C\C/C=C\CCCCCCC(=O)NCC(=O)O	-1.8%
Cc1ccc(-c2cc(C(=O)NN3CCOCC3)c3cc(Br)ccc3n2)o1	-21.9%
CCN1CCN(C(=S)c2ccc(Cl)cc2)CC1	35.5µM*
Cc1cc(C)c2c(CN3CCCCC3)cc(=O)oc2c1	2.1%
Clc1ccc(-c2csc(N/N=C/c3cccnc3)n2)c(Cl)c1	-1.7%
O=C(OCc1ccccc1)N1C=CC2CC1c1c(Cl)cccc12 (centres undefined)	-4.8%
SMILES	VDR inhibitor
Cc1nn(C)cc1CNC(=O)Nc1cccc(Cl)c1	12.9%
O=C1CC(c2nnc(Cc3cccc(Cl)c3)o2)CN1c1ccccc1 (centres undefined)	0.8%
CC(=O)Nc1cccc(C(=O)OCC(=O)NC(C)c2ccc(F)cc2)c1 (centres undefined)	1.9%
COc1ccc(-c2nc3nc(C)cc(=O)n3[nH]2)cc1	-2.5%
O=C(NCCCCc1ccccc1)c1ccc(Br)cc1	-17.6%
CCCC(=NCc1ccccc1)C1=C(O)C(C(=O)OC)C(C)(C)CC1=O (centres undefined)	1.8%
COc1cccc(C2C(C(=O)Nc3ccc(Cl)cc3)=C(C)Nc3nc4ccccc4n32)c1 (centres undefined)	-8.6%
CC(=O)c1ccc(-c2ccc([C@H]3[C@@H]4C=CCC[C@@]4(C)C(=O)N3Cc3ccccc3)c(F)c2)cc1	-23.6%
COc1ccc(C(=O)NNC(=O)CCn2nnc(-c3ccc(Cl)cc3)n2)cc1OC	-14.9%
Cc1ccc([S+](=O)([O-])N(c2ccccc2)[S+](=O)([O-])C(F)(F)F)cc1	3.8%
COc1ccccc1CNC(=O)Cc1ccccc1	-18.5%
CC(SCC(=O)Nc1ccc(F)cc1)c1nc2ccccc2c(=O)[nH]1 (centres undefined)	-8.3%
Nc1cccc(C#Cc2ccc3c(c2)C(=O)/C(=C/c2ccsc2)O3)c1	2.0%
Cc1cccc(NC(=O)COC(=O)c2n[nH]c3ccccc23)c1C	47.0%[activator]
N#CCSc1nnc(COc2ccccc2)n1-c1ccccc1	-4.7%
COc1ccc(CCNS(=O)(=O)c2csc(C(N)=O)c2)cc1OC	8.6%
Cc1ccccc1OCc1nnc(SCC(=O)Nc2ccc(N3CCOCC3)c(Cl)c2)n1C	7.6%
CN(C)c1nc2n(c(=O)n1)CCS2	19.3%
O=c1[nH]c(=O)n(Cc2ccccc2)c2c1C(C(F)(F)F)(C(F)(F)F)N=C(c1ccco1)N2	-2.7%
CCN(CC)c1ccc(NC(=O)CSc2nc(-c3cccs3)cc(C(F)(F)F)n2)cc1	-29.6%
O=C(c1ccccc1)N1CCN(CCc2ccccc2)CC1	-0.2%
CNc1nc(-c2ccc3c(c2)CCN3C(=O)c2ccccc2F)c(C)s1	?
CC1CCN(C(=O)c2[nH]cnc2C(=O)NCc2ccc(CNC(=O)OC(C)(C)C)cc2)CC1	-12.4%
c1ccc(-n2c(SCc3ccncc3)nnc2-c2ccco2)cc1	0.4%
Cn1c(SCC(=O)Nc2ccc(Br)cn2)nnc1C1CC1	-8.0%

Among those listed so far, these contain a thiophene ring, fused or not.
SMILES	VDR inhibitor
CC(=O)N1CCc2c(sc(NC(=O)CCS(=O)(=O)c3ccccc3)c2C#N)C1	-2.7%
CC1CCc2sc3nc(NCc4ccco4)n4ncnc4c3c2C1 (centres undefined)	4.8%
Nc1cccc(C#Cc2ccc3c(c2)C(=O)/C(=C/c2ccsc2)O3)c1	2.0%
COc1ccc(CCNS(=O)(=O)c2csc(C(N)=O)c2)cc1OC	8.6%
CCN(CC)c1ccc(NC(=O)CSc2nc(-c3cccs3)cc(C(F)(F)F)n2)cc1	-29.6%

The list goes on.
SMILES	VDR inhibitor
CC(C(=O)NN=C(c1ccccc1)c1ccccc1)N1CCCC1 (centres undefined)	1.7%
COc1ccccc1N(C)S(=O)(=O)c1ccc(C(=O)OCC(=O)Nc2ccccc2F)cc1	14.7%
Cc1cc(NS(=O)(=O)c2ccc(NC(=O)Cc3ccc(Cl)c(Cl)c3)cc2)no1	-9.3%
CC1(C)CC(=O)N(CC(=O)N2CCN(c3ncccn3)CC2)c2ccccc2S1(=O)=O	-0.3%
COC(=O)c1ccc(Nc2nc(C)nc3c2nnn3Cc2ccccc2)cc1	0.1%
COc1ccccc1C(=O)NCCC(=O)N(C)CC(=O)Nc1c(Cl)cccc1Cl	-5.0%
Cc1cc2nc(-c3cccc(NC(=O)COc4ccc(C(C)C)cc4)c3)oc2cc1C	6.1%
Cc1cc(Br)ccc1NC(=O)C1CCN(C(=O)c2ccco2)CC1	-0.8%
CSCCC(NC(=O)c1ccc(Br)cc1)C(=O)O (centres undefined)	0.4%
O=[N+]([O-])c1cccc(/C=N/Nc2nc(NCc3ccccc3)nc(N3CCOCC3)n2)c1	-9.3%
Cc1cccc(C)c1OCc1nnc(SCC(=O)NCc2ccccc2)o1	-3.7%
COc1cc(OC)c(C(=O)/C=C/c2ccccc2)c(O)c1O	?
CCOc1ccccc1Nc1nc(-c2sc(C)nc2C)cs1	-7.0%
CCOc1ccc(NC(=O)CSc2nnc3scc(-c4ccccc4)n23)cc1	-10.6%
CC(=O)Nc1sc(C)c(C)c1C(=O)OCC(=O)N(C)c1c(N)n(Cc2ccccc2)c(=O)[nH]c1=O	12.6%
COCCOC(=O)c1ccc(NC(=O)COc2ccc([N+](=O)[O-])cc2)cc1	-21.7%
CCSc1ncc(Cl)c(C(=O)Nc2cccc(Cl)c2)n1	-6.6%
Cc1nnc2c(SC(C)C)nc3ccccc3n12	-2.0%
CN(C)S(=O)(=O)c1ccc(C(=O)OCC(=O)c2csc(N3CCCCC3)n2)cc1	?
CC(C)c1nnc(NC(=O)C2CCCCC2)s1	-12.9%
O=c1cc(-c2ccccc2)oc2c(O)c(O)ccc12	12.6µM*
C=CCN1C(=O)C(CCCC)NC1=S (centres undefined)	8.4%
Cn1c2ccccc2c2n[nH]c(=S)nc21	-9.2%
CN(C)c1ccc(C(=O)NC2CCCc3ccccc32)cc1 (centres undefined)	3.0%
O=C(CSc1ccc(Cl)cc1)OCC(=O)N1CCN(c2ccccc2)CC1	-10.6%

7 entries already listed, ordered by the value under VDR inhibitor, lowest first.
SMILES	VDR inhibitor
COCCOC(=O)c1ccc(NC(=O)COc2ccc([N+](=O)[O-])cc2)cc1	-21.7%
O=[N+]([O-])c1cccc(/C=N/Nc2nc(NCc3ccccc3)nc(N3CCOCC3)n2)c1	-9.3%
COc1ccccc1C(=O)NCCC(=O)N(C)CC(=O)Nc1c(Cl)cccc1Cl	-5.0%
Cc1nnc2c(SC(C)C)nc3ccccc3n12	-2.0%
Cc1cc(Br)ccc1NC(=O)C1CCN(C(=O)c2ccco2)CC1	-0.8%
CN(C)c1ccc(C(=O)NC2CCCc3ccccc32)cc1 (centres undefined)	3.0%
CC(=O)Nc1sc(C)c(C)c1C(=O)OCC(=O)N(C)c1c(N)n(Cc2ccccc2)c(=O)[nH]c1=O	12.6%

Continued:
SMILES	VDR inhibitor
Cc1ccc(Oc2coc3cc(OC(=O)c4cccs4)ccc3c2=O)cc1	4.3%
CCOC(=O)c1cccc(NC(=O)NC2COc3ccccc3C2)c1 (centres undefined)	15.5%
CSc1ncc(CN2CCc3c([nH]c4ccccc34)C2c2cccc(O)c2)cn1 (centres undefined)	-19.1%
CCCCNc1c2c3c(cccc3n(C)c1=O)C(=O)c1ccccc1-2	0.5%
CC[C@]12c3[nH]c4cc(CCC(=O)N(C)C)ccc4c3CCN1C(=O)[C@@H](CC(=O)NCc1cccc(C(F)(F)F)c1)C[C@@H]2C(=O)N1CCN(C(=O)C2CC2)CC1	-5.4%
C=CCNC(=O)c1cc2nc(C3CC3)cc(C(F)F)n2n1	9.1%
O=C(Nc1nc2c(s1)CCCC2)c1cc(-c2ccncc2)nc2ccccc12	0.7%
CCOc1cc(C(=O)CCC(=O)OCC(=O)N2c3ccccc3NC(=O)C2(C)C)ccc1O	-6.8%
O=C(Cc1ccccc1)NC(NCCc1ccccc1)C(Cl)(Cl)Cl (centres undefined)	-6.6%
Clc1ccccc1OCc1nc(-c2ccccn2)no1	8.9%
COc1cccc(C(=O)CN2C(=O)C(C)(C)Oc3ccc(C(=O)N4CCCCCC4)cc32)c1	-8.3%
Cc1ccccc1NCC(=O)N/N=C\C=C\c1cccc([N+](=O)[O-])c1	-1.1%
C[C@]12c3[nH]c4cc(-c5ccco5)ccc4c3CCN1C(=O)[C@@H](CC(=O)NCCc1ccccn1)C[C@@H]2C(=O)N1CCCCC1	-4.8%
CCC(=O)N1c2ccc(S(=O)(=O)N(CCO)Cc3ccccc3)cc2CC1C (centres undefined)	-10.3%
O=C(CSc1nc2ccccc2c(=O)n1NC(=O)c1ccccc1)c1ccccc1	-10.1%
COc1cccc(NC(=O)C(=O)N/N=C/c2cc(C)n(-c3ccc(Cl)c(Cl)c3)c2C)c1	16.1%
COc1ccc(NC(=O)CN(C)C(=O)c2ccc(COc3ccccc3)cc2)cc1	22.7%
CC1CCN(S(=O)(=O)c2ccc(NC(=S)NC(=O)c3ccc(Cl)cc3)cc2)CC1	-3.3%
C#CCNc1c(C)c(C)nc2ncnn12	11.1%
Cc1sc2ncnc(SCC(=O)N3CCCC(C(N)=O)C3)c2c1C (centres undefined)	-2.6%
O=C(O)/C=C/C(=O)NCc1cn(-c2ccccc2)nc1-c1cccc(Br)c1	-9.4%
Cc1csc(NC(=O)Cc2ccc(Br)cc2)n1	-9.5%
O=C(Nc1ccc2c(c1)C(=O)NC2=O)c1cc(Cl)ccc1Cl	2.7%
CC(C)CC(NC(=O)C(NC(=O)C(Cc1ccc(OCc2ccccc2)cc1)NC(=O)OC(C)(C)C)C(C)C)C(N)=O (centres undefined)	-12.1%
CC(C)Nc1nc(NC(C)(C)C)nc(Oc2ccc(=O)n(C)n2)n1	-3.8%
SMILES	VDR inhibitor
COc1ccc(C(c2sc3nc(C)nn3c2O)N2CC(C)OC(C)C2)cc1OC (centres undefined)	-14.2%
CC(C)=CC(=O)OCC(=O)Nc1ncc(Cl)c(C)c1Cl	17.6%
Cc1cc(C(=O)Cn2cnc3cc(F)ccc3c2=O)c(C)n1C1CC1	9.4%
CC(C)(C)NC(=O)c1nn2c(C(F)(F)F)cc(-c3ccccc3)nc2c1Br	-7.7%
CCOc1cccc2sc(N(CCN(C)C)C(=O)CCS(=O)(=O)c3ccccc3)nc12	-12.5%
CCOc1cccc(C(=O)N/N=C/c2ccoc2)c1	2.7%
O=C(CSC1=Nc2ccccc2C2CC=NN12)Nc1ccc2c(c1)OCO2 (centres undefined)	?
COc1ccccc1NC(=O)C(C)OC(=O)C1COc2ccccc2O1 (centres undefined)	-2.9%
CCCN=C1CC(C)(C)CC(=O)/C1=C(/O)CCCN1C(=O)c2ccccc2C1=O	4.0%
O=C(CSc1nc2ccccc2c(=O)n1CC1CCCO1)Nc1ccccc1Cl (centres undefined)	-13.3%
O=C(CSCc1ccccc1Cl)NNC(=S)Nc1ccccc1	-3.5%
CS(=O)(=O)N1CCN(c2ccccc2NC(=O)c2cccnc2Cl)CC1	7.7%
COc1cccc(OC)c1C(=O)NC(=S)Nc1ccc(S(=O)(=O)Nc2nccs2)cc1	-1.0%
N/C(=N\OC(=O)c1cccc(Br)c1)c1ccccn1	-9.1%
CC1(C)C(=O)Nc2ccccc2N1C(=O)COc1ccc(S(=O)(=O)N2CCOCC2)cc1Cl	2.5%
CC(C)(C)N(NC(=O)Nc1ccccc1)C(=O)c1ccccc1Cl	-0.2%
O=C(O)c1ccc(-n2nncc2-c2ccco2)cc1	10.7%
Cc1cc(C)c(C)c(OCCOCCNCc2ccccc2)c1	-23.4%
CC(C)=CCC12Oc3cc(O)ccc3C1(O)Oc1cc(O)c([C@H]3C=C(C)CC(c4ccc(O)cc4O)[C@H]3C(=O)c3ccc(O)cc3O)c(O)c1C2=O (some centres undefined)	-23.5%
O=C(NCCN1CCCCC1)c1cc(Cl)ccc1Cl	7.0%
